Screening data (PubChem BioAssay)
VDR inhibitor – Inhibitors of the vitamin D receptor (VDR): qHTS | Potency, µM, inactives show max response, negative = inhibition, actives largely listed as inhibitors | AID 504847, 2011 | Vitamin D3 receptor (Homo sapiens), P11473 | 0.93% of 400,000 active | VDR-SRC2-3 peptide fluorescence polarization, 2 h; active = well fitted inhibition curve with a large enough effect; inconclusive = small, poorly fitted or top-dose-only effect, or another doubt; inactive = no such curve, though single readings can be large or run the other way; also: series mostly up to about 120 µM
Target sequence (P11473 whole entry, looked up): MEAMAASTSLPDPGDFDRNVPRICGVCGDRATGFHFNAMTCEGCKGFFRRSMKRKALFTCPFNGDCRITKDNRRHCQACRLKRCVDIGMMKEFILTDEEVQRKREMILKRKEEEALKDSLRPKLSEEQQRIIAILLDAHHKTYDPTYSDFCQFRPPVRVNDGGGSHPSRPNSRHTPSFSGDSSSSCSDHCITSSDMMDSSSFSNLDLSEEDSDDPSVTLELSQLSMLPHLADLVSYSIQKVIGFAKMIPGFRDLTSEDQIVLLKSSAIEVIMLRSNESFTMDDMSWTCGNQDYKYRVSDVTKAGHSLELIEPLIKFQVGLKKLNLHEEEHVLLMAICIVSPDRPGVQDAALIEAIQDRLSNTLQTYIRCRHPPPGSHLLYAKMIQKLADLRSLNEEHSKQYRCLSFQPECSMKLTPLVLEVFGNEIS
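FP read-out; VDR + SRC2-3 coactivator peptide; 23 nl compound by pintool; 2 h RT incubation; reagents held at 4 deg C, protected from light.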
The depositor's hits bear a star; u = inconclusive; & = joins results of further samples; [ ] = remark or other dose. % is scaled to controls: 0 for no effect and ±100 for the full control effect; potency is read from the fitted curve at half-maximal effect.

SMILES	VDR inhibitor
CC(=O)c1ccc(-c2cccc(C3C4C=CCCC4(C)C(=O)N3Cc3ccccc3)c2)cc1 (configuration not stated)	u
CCc1cccc(NC(=O)CN(C)S(=O)(=O)c2ccc3c(c2)CCCN3C(C)=O)c1	1.7%
CCOC(=O)c1ccc(-c2ccc(-c3cc(=O)oc4cc(OC)c(OC)c(OC)c34)cc2)cc1	-11.8%&4.9%
COc1ccc(C(=O)N2CCN(c3nc4cc(C)ccc4cc3C#N)CC2)c(OC)c1	-2.2%
CCC(C)NC(=O)c1[nH]c(C)c(C(=O)OC)c1C (configuration not stated)	16.1%
O=C(c1cc(C2CC2)nn1-c1ccccc1)N1CCN(c2ccccn2)CC1	5.7%
CCN(CC)S(=O)(=O)c1cccc(C(=O)NCCc2ccccc2)c1	3.8%
CC(=O)N1N=C(c2ccc(C)cc2)CC1c1ccco1 (configuration not stated)	-13.3%
Cc1ccc2nc(SCC(=O)c3ccc(Cl)cc3)nc(=O)n2c1	-18.1%
COc1cc(CCC(=O)N2CCN(c3ncccn3)CC2)cc(OC)c1OC	5.5%
Cc1ccc(C)c(COC(=O)CCN=C2NS(=O)(=O)c3ccccc32)c1	-12.6%
O=C(Nc1ccccc1C(=O)Nc1cccnc1)c1ccccc1	4.2%
O=C(CN1CCOCC1)N/N=C/c1cccc2ccccc12	1.0%
CC(Oc1ccc(C#N)cc1)C(=O)N1CC=C(c2ccccc2)CC1 (configuration not stated)	-10.0%
N/C(=N\OCc1ccccc1)c1nonc1N	4.6%
COc1ccc(-c2nc3ccc(C4=C(C)CC(=O)NN4)cc3[nH]2)cc1	-8.0%
NC(=O)c1oc2ccccc2c1NC(=O)C1CC(=O)N(c2ccccc2)C1 (configuration not stated)	-12.5%
CCN(CC)Cc1c(C(=O)N/N=C/c2c(Cl)cccc2Cl)nnn1-c1nonc1N	4.2%
O=C1C=CC(=O)C(CNc2ccc(C(=O)OCc3ccccc3)cc2)=C1	u
CCc1nnc(NC(=O)CCC2CCCCC2)s1	-6.5%
O=C(O)COc1ccccc1/C=N/NC(=O)c1cc(-c2ccccc2)nc2ccccc12	0.8%
CC(c1ccon1)N(C)C(=O)c1ccc(OC2CCN(C(=O)C3CC3)CC2)cc1 (configuration not stated)	-7.9%
CCc1nn(CC(=O)NC2CCN(Cc3ccccc3)CC2)c(=O)c2cc3cc(F)ccc3n12	4.2%
Cn1ccnc1SCC(=O)NC1(C#N)CCCCC1	-16.8%
CCCC(=O)N(c1ccc(C(=O)O)cc1)c1nc(-c2ccccc2)c(C)s1	-6.7%
O=C(CN1C(=O)COc2ccc(Cl)cc21)Nc1ccc(F)cc1	1.9%
CCCCCc1c(C)nc(N2CCN(Cc3ccc4c(c3)OCO4)CC2)[nH]c1=O	-14.4%
Cc1ccc2cc(CN(C)S(C)(=O)=O)c(=O)[nH]c2c1	-12.4%
S=C(Nc1ccccc1)N1CCCCC1	11.8%
CC1(C)CC(NC(=O)C2CCN(S(=O)(=O)c3ccc(F)cc3)CC2)CC(C)(C)N1	-5.1%
CCCC(=O)Nc1c2c(nn1-c1ccc(OC)cc1)CS(=O)C2 (configuration not stated)	-0.6%
Cc1c(Br)c([N+](=O)[O-])nn1CCCC(=O)NC(C)c1ccccc1 (configuration not stated)	u
CN1C(=O)C(Cc2c[nH]c3ccccc23)NC1=S (configuration not stated)	-12.0%
COc1ccc(/C=C/C(=O)N2CCCc3ccccc32)cc1	-4.6%
Nc1nc(SCC(=O)N2CCOCC2)n[nH]1	-5.0%
Cc1cc(C)c(NC(=O)Cn2nnc(-c3nc(-c4ccccc4)no3)c2N)c(C)c1	10.7%
COc1ccc(C2CC(=O)N3CN(c4ccc(C)c(Cl)c4)CSC3=C2C#N)cc1OC (configuration not stated)	22.4µM*
O=C(Cc1ccccc1)c1c[nH]c(C(=O)NC2CCCC2)c1	-21.6%
CCOC(=O)c1c(NC(=O)C2c3ccccc3Oc3ccccc32)sc(C(C)=O)c1C	-3.4%
COc1ccc2oc(=O)c(-c3cn4c(n3)sc3cc(F)ccc34)cc2c1	13.5%

VDR inhibitor: hit marks shown above
SMILES	VDR inhibitor
COc1ccc(C2CC(=O)N3CN(c4ccc(C)c(Cl)c4)CSC3=C2C#N)cc1OC (configuration not stated)	22.4µM*

Continued.
SMILES	VDR inhibitor
COC(=O)c1ccccc1NC(=O)CSc1nc2ncccc2[nH]1	8.4%
COCCN(C(=O)COC(=O)Cc1coc2cc(C)ccc12)c1c(N)n(Cc2ccccc2)c(=O)[nH]c1=O	-8.4%
Cc1ccc(NC(=O)Nc2ccccc2)nc1	3.7%
COc1ccc(NS(=O)(=O)c2cc(NC(=O)COc3ccccc3F)ccc2OC)cc1	30.1%[activator]
COc1c([N+](=O)[O-])c(=O)oc2ccccc12	-6.0%
S=c1[nH]nc(-c2cc(-c3ccccc3)n[nH]2)n1/N=C/c1ccccc1	-15.9%
Cc1ccc(N2C(=O)N(CC(=O)N3CCOCC3)C(=O)C2C)cc1 (configuration not stated)	-14.9%
COc1ccc(-c2noc(CNC(=O)COc3cccc(C)c3C)n2)cc1	7.6%
CN(C)Cc1c(O)ccc2c1O/C(=C\C=C\c1ccccc1)C2=O	-12.7%
CCc1nc2ccc(C(=O)Nc3ccc4c(c3)OCO4)cc2nc1CC	8.5%
O=C1Cc2ccccc2C(c2ccc(Cl)cc2)N1 (configuration not stated)	3.0%
CCN(C(=O)c1sc(N)c(C#N)c1C)C1CCCCC1	4.0%
CCN1CCN(c2ccc(S(=O)(=O)N3CCOCC3)cc2NC(=O)C2CCC(C(C)(C)C)CC2)CC1 (configuration not stated)	-21.8%
CCN(CC)S(=O)(=O)c1cc(NC(=O)CNc2cccc(S(=O)(=O)N3CCCC3)c2)ccc1C	-4.1%
COc1cc(Cl)c(C)cc1NC(=O)CNC(=O)Cn1ccc2ccccc2c1=O	-4.5%
COc1ccc(C(=O)N2CCC3(CCCN(c4ccncc4)C3)CC2)cc1	1.3%
NC(=O)C1CN(S(=O)(=O)c2ccc(Cl)cc2F)c2ccccc2O1 (configuration not stated)	7.6%
CCOC(=O)CCc1c(C)nc2cc(C3CCCN(C(=O)OC(C)(C)C)C3)[nH]n2c1=O (configuration not stated)	-24.1%
COc1cscc1C(N)=O	-15.7%
CCC(=O)C1=C(c2ccccc2)N(C(=O)CC)n2c(nnc2C2CCCCC2)S1	-4.2%

Brought forward from above: seven compounds, followed by the next part.
SMILES	VDR inhibitor
CCN(CC)S(=O)(=O)c1cc(NC(=O)CNc2cccc(S(=O)(=O)N3CCCC3)c2)ccc1C	-4.1%
COc1cc(Cl)c(C)cc1NC(=O)CNC(=O)Cn1ccc2ccccc2c1=O	-4.5%
COc1ccc(C(=O)N2CCC3(CCCN(c4ccncc4)C3)CC2)cc1	1.3%
NC(=O)C1CN(S(=O)(=O)c2ccc(Cl)cc2F)c2ccccc2O1 (configuration not stated)	7.6%
CCOC(=O)CCc1c(C)nc2cc(C3CCCN(C(=O)OC(C)(C)C)C3)[nH]n2c1=O (configuration not stated)	-24.1%
COc1cscc1C(N)=O	-15.7%
CCC(=O)C1=C(c2ccccc2)N(C(=O)CC)n2c(nnc2C2CCCCC2)S1	-4.2%
Cc1ccc(-n2c(=O)c3c(n4cnnc24)-c2ccccc2CC32CCCCC2)cc1	7.9%
O=C(O)c1ccc(CSCc2c(F)cccc2Cl)o1	-15.2%
COc1ccc(-c2cn3cc(Cl)ccc3n2)cc1OC	-2.8%
CSc1ncccc1C(=O)OCc1ccccc1	26.4%
Cc1cccn2c(=O)c(C(=O)N3CCN(c4ccc(Cl)cc4)CC3)cnc12	8.3%
CCC(C)NS(=O)(=O)c1ccc(S(=O)(=O)N(CCc2ccc(OC)c(OC)c2)Cc2cccs2)cc1 (configuration not stated)	-3.8%
CCCS(=O)(=O)N1CCCC(C(=O)NCCCOCC)C1 (configuration not stated)	-6.0%
COc1ccc(N2CCN(CCCNC(=O)c3ccc(CS(=O)(=O)c4ccc(Cl)cc4)o3)CC2)cc1	-20.5%
CCOC(=O)c1c(-c2ccccc2)csc1NC(=O)c1cc(S(=O)(=O)N2CCOCC2)ccc1C	-18.1%
CCOC(=O)Cc1c[nH]c2ccccc12	-4.1%
Cc1cccc(OCC(=O)NCC(=O)N/N=C/c2ccc(N(C)C)cc2)c1	6.8%
O=C(Cn1ncc2c3ccccc3n(Cc3ccc(Cl)cc3)c2c1=O)NC1CCCCCC1	5.9%
C=C1c2cccc(C(F)(F)F)c2O[C@H](C(=O)OCC)[C@@H]1CCCCCC	-14.3%
O=C(N/N=C/c1ccc(OCC(=O)N2CCOCC2)cc1)c1ccccc1Cl	0.8%
NC(=O)c1snnc1-c1ccccc1	8.3%
CC(OC(=O)c1cc2ccccc2o1)C(=O)Nc1ccc(N2CCOCC2)cc1 (configuration not stated)	-12.5%
CCCCCCCSc1nnc(-c2ccccc2N)c(=O)[nH]1	-11.2%
Cc1nc2ccc(NC(=O)N(C(C)C)C(C)C)cc2s1	-4.6%
O=C(NCCN1C(=O)S/C(=C/c2cccnc2)C1=O)c1cccs1	-4.8%
Cc1cccc(C(=O)N2CCN(S(=O)(=O)c3ccc4c(c3)OCCCO4)CC2)c1[N+](=O)[O-]	-2.0%
Cc1cccc(-c2noc(-c3ccc(N4CCCC4)c([N+](=O)[O-])c3)n2)c1	17.3%
C=CC(C1=CC(=O)C(OC)=C(OC)C1=O)c1ccccc1 (configuration not stated)	1µM*
CCOCCCNC(=O)C1(O)c2cc(Br)ccc2NC(=O)N1c1ccc(C)c(C)c1 (configuration not stated)	-2.1%
C[C@]12c3[nH]c4ccc(Cl)cc4c3CCN1C(=O)[C@@H](CC(=O)NCCC1=CCCCC1)C[C@@H]2C(=O)N1CCCCC1	-11.4%
CCOc1ccc(N2C(=O)CC(Sc3nc(C)cc(C)n3)C2=O)cc1 (configuration not stated)	-8.6%
COc1ccc(CN(C)C(=O)c2ccc3ccccc3n2)cc1F	-11.1%
COc1ccc(CC(=O)N2CCN(C(=O)Cc3ccc(OC)cc3)CC2)cc1	-8.4%
CCCOc1ccc(CNC(=O)CCC(=O)n2ncc3cc(C)ccc32)cc1	-26.8%
Cc1nn(-c2ccccc2)c(C)c1C(=O)NCCc1ccccc1	15.2%
CN(C(=O)c1cccc(NC(=O)Cc2cccc(NC(=O)C3CCCN(C(=O)C4CCCC4)C3)c2)c1)C1CCC1 (configuration not stated)	5.9%
COc1cc(OC)c(NC(=O)C2CCN(C(=O)c3sc4nc[nH]c(=O)c4c3C)CC2)cc1Cl	15.1%
CNC(=S)Nc1ccc(N2CCN(c3ccc(C(F)(F)F)cn3)CC2)nc1	32.6%[activator]
CCn1c(CC(=O)Nc2ccc(C)cc2)nnc1SCC(=O)N1CCOCC1	7.4%
CC1=C(C(N)=O)C(c2cccs2)NC(=S)N1 (configuration not stated)	u
CN(C)C(=O)CCc1ccc2c3c([nH]c2c1)[C@]1(CCC2CCCC2)[C@@H](C(=O)N2CCOCC2)C[C@H](CC(=O)NCc2cccc(C(F)(F)F)c2)C(=O)N1CC3	-14.1%
COc1ccc(-c2c(-c3cccc(C)c3)oc3ccc(-c4ccc5c(c4)OCO5)cc23)cn1	11.3%
CCC(C)Sc1nnc(CSc2nc(C)cc(C)n2)n1C (configuration not stated)	-21.8%
Cc1cc(NC(=O)CCC(=O)N(CC(=O)NC2CCCC2)Cc2ccc3c(c2)OCO3)no1	7.4%
NC(=O)CSCc1cccc(Br)c1	-12.4%
CC1CN(C(=O)N2CCC(C(=O)NCCC3=CCCCC3)CC2)c2ccccc2O1 (configuration not stated)	11.2%
CCCOC(=O)C1=C(C)NC2=C(C(=O)CCC2)C1c1ccc(N(C)C)cc1 (configuration not stated)	15.3%
CNC(=O)C(=O)NCC1OCCN1S(=O)(=O)c1ccc(C)cc1 (configuration not stated)	0.1%
CC(C)(C)CC(C)(C)c1ccc(O)c(-n2nc3ccccc3n2)c1	-3.5%
c1ccc(Nc2ncnc3sccc23)cc1	22.4%
CCn1nnc(-c2ccccc2NC(=O)c2ccc(-n3cnnn3)cc2)n1	0.6%
OC(C#CCN1CCCC1)(c1ccccc1)c1cccc(F)c1 (configuration not stated)	-3.8%
CC(C)c1ccc(N2C(=O)N(Cc3ccccc3Cl)c3ccccc3S2(=O)=O)cc1	10.7%
CC1(C)CC(=O)C(C=NCC2CCN(C(=O)Nc3ccc(Cl)c(Cl)c3)CC2)=C(O)C1	25.1%
Cc1ccc(NC(=O)NC2=NN(c3ccccc3)C(=O)/C2=C2/CCCN2C)cc1	-6.9%
CC(=O)NCCNc1nc2c(S(=O)(=O)c3ccc(C)c(C)c3)nnn2c2ccc(Cl)cc12	-12.6%
O=C(Cn1c(=O)oc2cc(S(=O)(=O)N3CCCCC3)ccc21)N1CCCCC1	12.5%
CCC(=O)Nc1cc(-c2nn3c(C)nnc3s2)ccc1C	16.5%
CCc1ccccc1NC(=S)N(Cc1ccc(C(=O)O)cc1)Cc1ccc(OC)c(OC)c1	0.3%
CCC(C)(C(=O)NC1CCCC1)N(C(=O)CC1NC(=O)NC1=O)c1ccc(C)cc1 (configuration not stated)	7.5%
Cc1c(C(=O)NCCc2ccc3c(c2)OCCO3)oc2ccccc12	-10.3%
COc1cccc(C(=O)NCc2cccnc2)c1	-0.5%
CN(C)c1ccc(C(CC(=O)c2ccccc2)C2CCCCC2=O)cc1 (configuration not stated)	-17.4%
Cc1cc(Cl)ccc1OCc1nc(-c2ccc(O)cc2)n[nH]1	2.4%
COc1ccc(CNc2nc(-c3ccoc3)nc3ccccc23)c(OC)c1	-26.5%
O=C(CCN1C(=O)c2ccccc2C1=O)Oc1ccc2ccccc2c1	7.2%

Continued:
SMILES	VDR inhibitor
Cc1nccn1-c1ccc(C(F)(F)F)cc1NC=O	-6.4%
CC1CCN(C(=O)Cn2nnc(-c3ccc(N)cc3)n2)CC1	-17.3%
Cc1ccc(OCCn2cnc3c(N)ncnc32)cc1	6.3%
O=C1C=C(c2cc(F)ccc2F)C[C@@H](c2ccc(F)cc2)C1	7.3%

A portion of the library (hit frequency here may not be typical).
